M. tuberculosis HTS: M. tuberculosis growth inhibition, HTS (AID 449762); inhibition, % at 25 µM; hits with a dose series show IC50 in µM; M. tuberculosis H37Rv growth inhibition, 7H9 media; higher % means a stronger effect; hit rate 0.59% among 330,000; in the data active = a potency from the dose series; inconclusive = inhibition above about 70% without an active follow-up result;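 also: bacterial growth assessed after seven days of incubation; strong numbers were not always called active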
VEEV TC-83 Vero: inhibitors of VEEV TC-83 cytopathic effect, confirmation, Vero cells (AID 588727); inhibition, % at 20 µM; hits with a dose series show IC50 in µM; Vero cells, VEEV TC-83 cytopathic effect inhibition; higher % means a stronger effect; hit rate 0.13% among 350,000; in the data active = a potency from the dose series; inconclusive = inhibition mostly from about 14% at the one dose, without a potency; inactive = the rest, 99 in 100 with inhibition below about 12%; also: strong numbers were not always called active
M. tuberculosis: growth inhibition of non-replicating M. tuberculosis (AID 488890) | Mycobacterium tuberculosis non-replicating, growth inhibition; higher % means a stronger effect | one-dose inhibition, % at 25 µM; IC50 in µM for titrated hits | hit rate 0.39% among 320,000; in the data active = a potency from the dose series; inconclusive = inhibition mostly from about 82% at the one dose, without a potency; inactive = the rest, 99 in 100 with inhibition below about 76%;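 also: plate controls were DMSO cells for no effect and high antibiotic wells for full effect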
VEEV TC-83 Vero 10K pilot screen: recorded beside VEEV TC-83 Vero, whose call it bears; inhibition, %; measured here: 10K pilot screen inhibition
Active calls of the source: *; i = inactive; ? = inconclusive; . = not tested or not shown. Some of the compounds tested; rates above refer to the full screens.

SMILES	M. tuberculosis HTS	VEEV TC-83 Vero	M. tuberculosis	others
COc1cc([C@@H]2c3cc4c(cc3[C@@H](O[C@@H]3O[C@@H]5CO[C@@H](C)O[C@H]5[C@H](O)[C@H]3O)[C@H]3COC(=O)[C@H]23)OCO4)cc(OC)c1O	?	0.4%	19%
COc1ccc(/C=C/C(=O)O)cc1OC	-6%	0.1%	5%
COC1=CC(=O)CC(C)C12Oc1c(Cl)c(OC)cc(OC)c1C2=O (stereo not drawn)	0%	i	-14%
Cc1ccc(-c2c[n+](Cc3ccc(Cl)cc3)c3n2CCC3)cc1	-7%	i	38%
O=C(N/N=C/c1cc(Br)ccc1O)c1ccccc1Cl	?	13%	0.48µM*	VEEV TC-83 Vero 10K pilot screen=9.3
O=C(N/N=C/c1ccc([N+](=O)[O-])s1)c1cccnc1	?	i	4.5µM*
Cn1c(=O)c2[nH]cnc2n(C)c1=O	4%	0.7%	-12%
CC(=O)Oc1ccc(C(c2ccc(OC(C)=O)cc2)c2ccccn2)cc1	-5%	i	9%
COc1cccc(/C=N\NC(=O)Cn2nnc3ccccc32)c1O	37%	9.7%	25%
Oc1ccc(/C=N/N=C(c2ccccc2)c2ccccc2)c(O)c1O	8%	5.2%	-7%
Fc1cccc(Cl)c1CSc1ccc(-c2ccco2)nn1	-3%	0.1%	42%
COc1nsnc1NS(=O)(=O)c1ccc(NC(=S)NC(=O)c2cccnc2)cc1	-1%	0.1%	47%
CC(=O)Nc1cccc(NC(=O)Nc2ccc(C)c(Cl)c2)c1	-2%	1.8%	6%
CC1=C(c2ccccc2)SC2=NCCN21	6%	1.5%	-8%
Cc1ccc(C(=O)N/N=C\c2ccc([N+](=O)[O-])o2)cn1	?	0.8%	70%
O=C(O)/C=C/c1ccc([N+](=O)[O-])o1	?	1.0%	?
Nc1nc(N)c2[nH]cnc2n1	-1%	.	6%
CC(=O)NCc1ccc(C(=O)CCl)cc1	13%	?	70%
Cc1cc(Br)ccc1OCCCCNCCO	-22%	i	13%
COc1ccccc1C(C[N+](=O)[O-])c1c(N)n(C)c(=O)n(C)c1=O (stereo not drawn)	?	27%	?
O=C(C1CCCCC1)N1CC(=O)N2CCc3ccccc3C2C1 (stereo not drawn)	1%	.	9%

Copied from above (2 entries):
SMILES	M. tuberculosis HTS	VEEV TC-83 Vero	M. tuberculosis	others
CC(=O)NCc1ccc(C(=O)CCl)cc1	13%	?	70%
Cc1cc(Br)ccc1OCCCCNCCO	-22%	i	13%

An excerpt from above in order of heavy-atom count, high to low:
SMILES	M. tuberculosis HTS	VEEV TC-83 Vero	M. tuberculosis	others
COc1cc([C@@H]2c3cc4c(cc3[C@@H](O[C@@H]3O[C@@H]5CO[C@@H](C)O[C@H]5[C@H](O)[C@H]3O)[C@H]3COC(=O)[C@H]23)OCO4)cc(OC)c1O	?	0.4%	19%
COc1nsnc1NS(=O)(=O)c1ccc(NC(=S)NC(=O)c2cccnc2)cc1	-1%	0.1%	47%
CC(=O)Oc1ccc(C(c2ccc(OC(C)=O)cc2)c2ccccn2)cc1	-5%	i	9%
Oc1ccc(/C=N/N=C(c2ccccc2)c2ccccc2)c(O)c1O	8%	5.2%	-7%
O=C(C1CCCCC1)N1CC(=O)N2CCc3ccccc3C2C1 (stereo not drawn)	1%	.	9%
Fc1cccc(Cl)c1CSc1ccc(-c2ccco2)nn1	-3%	0.1%	42%
O=C(N/N=C/c1cc(Br)ccc1O)c1ccccc1Cl	?	13%	0.48µM*	VEEV TC-83 Vero 10K pilot screen=9.3
O=C(N/N=C/c1ccc([N+](=O)[O-])s1)c1cccnc1	?	i	4.5µM*
Cc1cc(Br)ccc1OCCCCNCCO	-22%	i	13%
COc1ccc(/C=C/C(=O)O)cc1OC	-6%	0.1%	5%
O=C(O)/C=C/c1ccc([N+](=O)[O-])o1	?	1.0%	?
Nc1nc(N)c2[nH]cnc2n1	-1%	.	6%

Source: PubChem
